# Source: PubChem (several laboratories)
# YopH inh: YopH (Yersinia) phosphatase inhibition | fluorescence Ex485/Em525 | inhibition, %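 (about 10 µM by stock and volumes)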 | actives 0.16% (n = 140,000) | AID 898;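 active means inhibition of 50% or more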;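 further: controls were vehicle for no effect and minimum signal wells for full effect; inactives centre near -20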
# Mtb bLac sens: beta-lactam sensitization of Mtb H37Rv; M. tuberculosis H37Rv growth with meropenem, percent inhibition; hits of this screen are not shown here; inhibition, % at 25 µM; actives 0.27% (n = 330,000); AID 434955;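 active means about 74% or more and at least 40 points above the plate without the antibiotic, then above 30% in a dose series; inconclusive means first-round hits that could not be retested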;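 further: growth measured after seven days incubation then overnight dye step; 0% = bacteria only wells and 100% = bacteria with antibiotic; twin plates without the antibiotic show which effects depend on it; some results filed as inactive read as strong as hits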
# RecA intein inh: blocks M. tuberculosis RecA intein splicing | cell-free RecA intein splicing, fluorescence | inhibition, %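 (about 9 µM by stock and volumes)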 | actives 0.75% (n = 290,000) | AID 2221 | P9WHJ3; in the data active means inhibition above about 30%; inconclusive means no clear call, values can overlap the other calls;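 further: 0% = vehicle wells and 100% = reference inhibitor control wells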
# Target sequence (P9WHJ3 whole entry, looked up): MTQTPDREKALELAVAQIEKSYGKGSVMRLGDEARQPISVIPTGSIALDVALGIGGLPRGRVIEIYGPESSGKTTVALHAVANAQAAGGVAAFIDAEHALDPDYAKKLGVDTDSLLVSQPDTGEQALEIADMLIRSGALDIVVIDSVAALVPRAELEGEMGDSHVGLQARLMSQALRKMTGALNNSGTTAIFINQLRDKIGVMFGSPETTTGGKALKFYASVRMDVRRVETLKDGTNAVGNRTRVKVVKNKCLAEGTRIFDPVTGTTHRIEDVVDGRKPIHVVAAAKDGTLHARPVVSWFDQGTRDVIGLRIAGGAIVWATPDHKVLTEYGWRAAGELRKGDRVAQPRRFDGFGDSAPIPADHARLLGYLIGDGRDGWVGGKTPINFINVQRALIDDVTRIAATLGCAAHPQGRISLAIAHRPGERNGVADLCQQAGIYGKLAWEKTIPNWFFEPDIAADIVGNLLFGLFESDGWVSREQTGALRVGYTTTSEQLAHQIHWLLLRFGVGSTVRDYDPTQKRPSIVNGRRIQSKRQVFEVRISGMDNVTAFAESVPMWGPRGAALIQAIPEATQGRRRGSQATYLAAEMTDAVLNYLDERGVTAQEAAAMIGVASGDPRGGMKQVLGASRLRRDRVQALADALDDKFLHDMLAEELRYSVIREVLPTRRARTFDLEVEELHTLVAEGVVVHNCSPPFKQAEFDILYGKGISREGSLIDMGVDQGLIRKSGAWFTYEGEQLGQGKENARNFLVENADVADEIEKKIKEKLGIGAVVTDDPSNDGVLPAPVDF
# Mtb H37Rv: M. tuberculosis H37Rv growth inhibitors, H37Rv strain (AID 1626); inhibition, % at 10 µM; hits with a dose series show IC50 in µM; actives 0.95% (n = 220,000); M. tuberculosis H37Rv growth inhibition; higher % means a stronger effect;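 active means confirmed in a dose series; inconclusive means inhibition above 80% but not taken into the dose series; inactive means below 80% or under 30% at every dose of the series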;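 further: bacteria incubated seven days before Alamar blue readout; 0% = bacteria only wells and 100% = bacteria with antibiotic wells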
# Arbovirus anti: blocks arbovirus infection. arbovirus infection cell-based antiviral screen. inhibition, % at 10 µM. actives 0.37% (n = 200,000). AID 1251;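 active means inhibition from about 30%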;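 further: bluetongue infection of BSR cells; cell survival read as ATP light after 72 h; 0% = infected wells without compound and 100% = uninfected wells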
# Arbovirus anti repeat: also measured in Arbovirus anti; calls as there; inhibition, %; measured here: 10K subset replicate screen; many hits read low in the repeat;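 first of two repeat runs on a subset; 0% = infected and 100% = uninfected wells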
# * = called active by the depositor; ? = inconclusive; · = no result given. Some of the compounds tested; rates above refer to the full screens.
SMILES,YopH inh,Mtb bLac sens,RecA intein inh,Mtb H37Rv,Arbovirus anti,others
Cn1c(=O)c2cn(Cc3ccc(Cl)cc3)cc2n(C)c1=O,22,5,-1.4,15%,3,
COc1cc(CC2(CCc3ccncc3)C(=O)N(C)C(=O)N(C)C2=O)cc(OC)c1OC,·,-1,3.1,0%,2,
O=C(N/N=C(\c1ccccc1)c1cccnc1)c1cccc(F)c1,·,96,5.9,·,·,
O=S(=O)(c1ccc(Br)cc1)N1CCCc2ccccc21,·,0,12,·,·,
Cc1ccc(NC(=O)C2CCC(CNC(=O)[C@@H]3Cc4ccccc4CN3)CC2)c(C)c1 (stereo not given in full),·,1,-0.6,·,·,
c1ccc(CNc2nc(N3CCN(Cc4ccccc4)CC3)nc3ccccc23)cc1,·,99,20,?,·,
c1ccc2c(c1)nnn2Cc1nnc2sc(-c3ccc4c(c3)OCCO4)nn12,2,3,6.0,-5%,-19,
C/C(=N\Nc1ccc(C)c(Cl)c1)c1cccnc1,·,9,3.6,·,·,
O=C(Cn1nnc(N2CCCC2)n1)N/N=C/c1ccc(Cl)cc1,·,1,·,-8%,·,
Cc1cc(OCCCn2ccnc2)ccc1[N+](=O)[O-],·,-15,-0.4,·,·,
CCc1ccc(NC(=O)CSc2nnc(C)c(=O)n2N)cc1,·,-12,-2.0,·,·,
O=C(CCC(=O)Nc1ccc(Br)cc1)N/N=C/c1ccccc1O,·,-2,-0.3,·,·,
O=C(NC1=NCCS1)c1cc(-c2cccs2)nc2ccccc12,·,10,-16,-8%,·,
CCC(/C=N/NC(=O)C1COc2ccccc2O1)CC (stereo not given),-18,3,-0.5,-4%,1,
O=C(O)c1cnn2c(C(F)(F)F)cc(-c3ccccc3)nc12,-24,-10,3.9,-1%,10,
Cc1ccc(NS(=O)(=O)c2ccc3[nH]c(=O)oc3c2)c(C)c1,·,3,-1.1,·,·,
NS(=O)(=O)c1ccc(CNC(=O)/C=C/c2c(F)cccc2Cl)cc1,·,-4,-3.9,11%,9,
CCC(Sc1nncn1C)C(=O)Nc1nnc(-c2ccc(Cl)cc2)s1 (stereo not given),-50,-2,-1.3,1%,26,Arbovirus anti repeat=11
CCC(=O)Nc1nc(C)c(-c2csc(Nc3ccccn3)n2)s1,·,-1,-1.8,14%,-3,
O=c1[nH]c2cc(NCCO)c([N+](=O)[O-])cc2[nH]1,·,0,-1.0,4%,10,
CCNC(=O)CN(c1ccc(C)cc1)S(=O)(=O)c1ccccc1,17,0,-2.3,-7%,4,
Cc1ccnc(SCCn2c(N3CCC(C)CC3)nc3c2c(=O)n(C)c(=O)n3C)n1,5,?,-0.7,5%,·,
CN(C)c1cccc(C(=O)OCCNC(=O)c2cccc(S(=O)(=O)N3CCOCC3)c2)c1,·,-2,-0.6,10%,·,
COC(=O)c1ccc(NC(=O)CN2CCN(c3ccccc3C)CC2)cc1,-23,35,-2.0,-3%,-4,
COc1cc(C)c(NC(=S)Nc2ccc(Cl)c(Cl)c2)cc1OC,-5,80,5.1,?,21,
CCOC(=O)c1ccc(NC(=O)C(=O)NCC2CCCO2)cc1 (stereo not given),-24,65,-1.0,65%,3,
O=c1c2ccccc2nnn1CSc1nnc(Nc2ccccc2)s1,-50,-5,-1.2,-2%,3,
CCCNC(=O)c1cc(SC)ccc1Cl,-13,19,-9.4,·,0,
O=C(COc1cccnc1[N+](=O)[O-])Nc1ccc2c(c1)OC(F)(F)O2,-22,5,-0.7,-5%,3,
Cc1ccc(C)c(NC(=O)CN(C)S(=O)(=O)c2ccc(F)cc2)c1,-46,0,5.0,-4%,3,

# Overlap with the part before: 5 compounds, followed by the next part.
SMILES,YopH inh,Mtb bLac sens,RecA intein inh,Mtb H37Rv,Arbovirus anti,others
CCOC(=O)c1ccc(NC(=O)C(=O)NCC2CCCO2)cc1 (stereo not given),-24,65,-1.0,65%,3,
O=c1c2ccccc2nnn1CSc1nnc(Nc2ccccc2)s1,-50,-5,-1.2,-2%,3,
CCCNC(=O)c1cc(SC)ccc1Cl,-13,19,-9.4,·,0,
O=C(COc1cccnc1[N+](=O)[O-])Nc1ccc2c(c1)OC(F)(F)O2,-22,5,-0.7,-5%,3,
Cc1ccc(C)c(NC(=O)CN(C)S(=O)(=O)c2ccc(F)cc2)c1,-46,0,5.0,-4%,3,
CC(NC(=O)c1sc2ccccc2c1Cl)C1CCCO1 (stereo not given),-18,6,-9.8,7%,4,
O=C(NNC(=O)c1cc(OCC(F)(F)F)ccc1OCC(F)(F)F)c1ccc(Cl)c(Cl)c1,-40,-3,2.9,8%,-7,
CC(=O)N/C(=C/c1ccc(OC(F)F)cc1)C(=O)O,-19,-2,0.2,0%,2,
CC1(C)C(c2cccs2)=[N+]([O-])C2(CCCCC/C2=N\NC(N)=O)N1O (stereo not given),-50,-5,1.1,-19%,-1,
Cc1cnc(C(=O)OCC(=O)NCCc2ccccc2)cn1,-35,2,-1.1,-5%,8,
CCOC(=O)c1cc(C#N)c(SCC(N)=O)[nH]c1=O,·,8,-7.1,-3%,·,
CC1(C)Cc2cccc(OCC(=O)NCc3cccs3)c2O1,·,5,0.1,·,·,
O=C(NC1CCCCC1)c1ccc(Cn2cc(Br)cn2)o1,-6,-1,-2.0,-14%,-3,
COC(=O)CNC(=O)c1cccs1,-10,-8,-0.7,-4%,2,
CC(C)(C)c1ccc(/C([O-])=C(/C(=S)NCc2ccco2)[n+]2ccccc2)cc1,0,10,7.2,-5%,4,
Cc1nn(C(=O)/C(C#N)=C/N(C)C)c(C)c1C,·,0,·,-4%,-3,
Cc1nc(C)n(C(C)CC(=O)O)n1 (stereo not given),-6,-4,-0.8,15%,-2,
COc1ccc(C2C(C(=O)c3ccco3)=C(O)C(=O)N2CCN2CCOCC2)c(OC)c1 (stereo not given),·,-6,-19,·,·,
CC(C)c1ccc(CN2CC(C(=O)O)CC2=O)cc1 (stereo not given),-46,?,-1.3,-1%,6,
CCOc1ccc(Nc2nc(NCc3ccco3)nc(N)c2[N+](=O)[O-])cc1,·,-4,-0.8,-2%,·,
C/C(=C\C(=S)Nc1ccccc1)Nc1ccc2ccccc2c1,-13,97,13,4.4µM*,-7,
COC(=O)NNC(=O)COc1cc(C)ccc1C,-28,-3,-1.1,2%,4,
COc1ccc(C(=O)OCCN2CCOCC2)cc1OC,-32,-7,·,-8%,0,
O=CN1CCN(C(=O)CC(c2ccccc2)c2cc(Br)ccc2O)CC1 (stereo not given),·,5,1.7,·,·,
Cc1ccc(NC(=O)CN(C)C(=O)CSc2nc3ccccc3o2)cc1,0,-8,-0.2,·,-4,
Cc1[nH]c2ccc(F)cc2c(=O)c1SC(F)(F)C(F)F,-47,-4,-1.5,3%,7,
CCCn1c(=O)c(C(=O)NCc2cccnc2)c(O)c2ccccc21,-15,-2,7.7,-5%,-9,
O=C(NCc1ccc(Cl)cc1)C1CCC(CNS(=O)(=O)c2ccccc2)CC1 (stereo not given),·,3,-2.1,·,·,
Cc1ccc2c(c1)N(CC(=O)N1CCCCCC1)C(=O)CO2,-42,-7,0.0,-8%,2,
CC1CCC2(CC1)NC(=O)N(Cc1nc(-c3ccccc3)no1)C2=O (stereo not given),-43,7,0.7,6%,5,
COc1cccc(NC(=O)n2nc(N)cc2-c2ccc(Cl)cc2)c1,-39,0,-0.4,3%,-30,
Oc1ccc(N=Cc2ccc(O)c(O)c2)cc1,-31,-6,86*,2%,4,
Cn1nc(NC(=O)C(F)(F)F)c2ncc(-c3ccc(Cl)cc3)nc21,·,3,0.7,-1%,·,
Cc1ccc(S(=O)(=O)Nc2cccc(C(=O)NC3CCN(Cc4ccccc4)CC3)c2)cc1F,·,51,-2.4,·,·,
O=C(O)COc1ccc(/C=N/NC(=O)Cc2ccc(Cl)cc2)cc1,·,-1,-0.5,-5%,·,
COc1ccc(N2CC(C(=O)NCc3ccco3)CC2=O)cc1 (stereo not given),·,-3,0.9,6%,2,
Cc1c(NC(=O)C(C)OC(=O)c2cc(Cl)ccc2O)c(=O)n(-c2ccccc2)n1C (stereo not given),·,-18,1.4,·,·,
COc1ccc(C(=S)N2CCN(c3cccc(Cl)c3)CC2)c(OC)c1,·,-10,9.0,-11%,-9,
CCC(=O)Nn1c(C)nnc1C,-27,-9,1.3,-10%,7,
Cc1ccc(S(=O)(=O)N2CCOCC2)cc1NC(=O)CNCc1ccccn1,·,-6,-4.4,-10%,·,
COc1ccccc1Nc1nc(N)nc(CN2CCOCC2)n1,·,-3,-0.9,3%,4,Arbovirus anti repeat=2
Cc1cc(C(=O)O)cc(S(=O)(=O)NNC(=O)c2cccs2)c1C,·,-5,2.5,·,·,
CCC(C)[C@H](NC(=O)N1CCn2c1nc1ccccc12)C(=O)NCC1CCCO1 (stereo not given in full),·,-2,-2.3,·,·,
Cc1occc1C(=O)Nc1nn[nH]n1,10,6,-2.8,7%,9,
CC(C)Nc1nc2cccnc2s1,·,2,-2.4,-5%,·,
CCC(c1nnnn1Cc1ccccc1)N1CCN(c2ccc(OC)cc2)CC1 (stereo not given),·,4,-0.4,1%,5,
NC(=O)c1cccc(S(=O)(=O)N2CC(c3ccccc3)CC2=O)c1 (stereo not given),-29,-3,1.0,-8%,5,Arbovirus anti repeat=2
COCCN(C(=O)COC(=O)C1=COCCO1)c1c(N)n(Cc2ccccc2)c(=O)[nH]c1=O,·,-8,-0.3,·,·,
COc1ccc(C(=O)OCC(=O)Nc2ccc(F)c(F)c2)cc1OC,-2,-1,4.6,-11%,15,
COc1ccc(NC(=O)CCNC(=O)N2CC(=O)Nc3ccccc32)c(OC)c1,·,0,-0.9,·,·,
Cn1c(C(=O)O)c(CC(=O)N2CCC(Cc3ccccc3)CC2)c2ccccc21,-23,6,2.9,2%,10,
OC(CNC1CCCCCC1)COc1cccc2ccccc12 (stereo not given),·,5,-237,·,·,
COc1ccc(CC(=O)NCCc2cnc[nH]2)cc1,·,-1,1.7,·,·,
COc1ccc(C(C)C)cc1S(=O)(=O)N1CC(C)OC(C)C1 (stereo not given),·,-1,0.1,5%,0,
O=C(O)c1ccc2c(c1Sc1ccccc1)C(=O)c1ccccc1C2=O,·,9,15,-8%,·,
O=C(NCc1ccco1)c1nn2cccnc2c1Cl,·,1,5.1,2%,-3,
CN(C(=O)COC(=O)c1ccc(S(=O)(=O)N2CCCC2)cc1)c1ccccc1,·,-4,-0.8,-1%,2,
Cc1ccc(C2=NOC(=O)/C2=C\C=C\c2ccccc2)cc1,·,·,1.3,?,-33,
COc1cc(/C=N/NC(=O)CN(Cc2ccccc2)S(=O)(=O)c2ccc3c(c2)OCCO3)ccc1O,-17,5,2.6,6%,-7,
CC(NC(N)=O)C(=O)NCC(=O)OCc1ccccc1 (stereo not given),·,-6,0.0,5%,9,
CSCC[C@H](NC(=O)COc1ccc(Cl)cc1Cl)c1nc2ccccc2[nH]1,-27,9,-0.8,5%,-2,
O=C(CCN1CCN(Cc2ccccc2)CC1)Nc1cccc(Br)c1,·,-4,2.2,·,·,
O=S(=O)(c1ccc(Br)cc1)N1CCOC12CCCCC2,·,-7,-0.6,13%,10,
C=CCn1c(Cc2cccs2)nnc1SCC(=O)NC1CC1,·,4,-1.9,·,·,
Cn1c(SCCC(=O)O)nnc1-c1ccncc1,-9,-7,1.6,-7%,3,

# Next section
SMILES,YopH inh,Mtb bLac sens,RecA intein inh,Mtb H37Rv,Arbovirus anti,others
COc1cc(/C=C2\SC(=S)N(NC(=O)c3ccncc3)C2=O)ccc1O,·,-9,-3.7,-10%,·,
CC(C)c1nc(SCC(=O)NC2CCCC2)c2c(=O)n(C)c(=O)n(C)c2n1,·,?,1.9,·,·,
CN(C(=O)c1ccncc1)C1CC(C)(C)N(O)C(C)(C)C1,-3,2,-2.9,2%,9,
CC1CCCCC12NC(=O)N(Cn1nnc3ccccc3c1=O)C2=O (stereo not given),-38,9,-0.2,1%,-2,
COc1ccccc1N(CC(=O)NC1CCCCC1)C(=O)CNC(=O)c1cccs1,·,5,1.0,·,·,
Cc1cc(C)cc(Nc2nc3c([nH]2)c(=O)n(C)c(=O)n3C)c1,·,7,-1.5,6%,1,
COc1ccc(CC(=O)NNC(=O)c2ccccn2)cc1,·,51,-4.5,·,·,
CCOc1ccc(NC(=O)c2ccc(Cl)c(NC(=O)c3ccco3)c2)cc1,·,2,-0.1,·,·,
CC(CCC(=O)O)C1CCC2C3C(O)CC4CC(O)CCC4(C)C3CC(O)C12C (stereo not given),·,-2,-4.3,·,·,
CCCCn1nc(CC(=O)O)c2ccccc2c1=O,-12,-6,-3.1,-1%,-3,
COc1nc(C#N)c(N2CCOCC2)o1,23,7,0.8,-14%,0,
CCCCCCOc1ccc(OCC(O)CN2C(=O)NC(C)(C)C2=O)cc1 (stereo not given),-26,-1,-0.2,0%,13,
